Screening data from PubChem.
CapD inh: Bacillus anthracis CapD inhibitors, primary screen, biochemical, fluorescence intensity. purified CapD enzyme, fluorescence intensity read-out; stronger effect = lower value; some hits fall short of the stated cut. z-score (concentration not given with the values). hit rate 0.23% among 140,000;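 active means z-score under -4 in either of two replicates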;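 further: stock transfer was 100 nL into about 40 µL; score is relative to mean and spread of the plate; one replicate is shown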
AID504770: growth inhibition of E. coli YBA685, primary screen, V. cholerae RctB inhibitors; AID 504770, 2011; E. coli YBA685 rctB-dependent plasmid, OD600 growth, 3 h; stronger effect = lower value; hit rate 0.27% among 130,000; z-score (no concentration beside the values);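 active means z-score under -2 on both plates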;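 further: wells of about 30 µL received 100 nL stock; score is relative to mean and SD of the test wells; the first replicate is given; strong numbers were not always called active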
* = called active by the depositor; · = not tested or not shown; & = joins results of further samples.

SMILES	CapD inh	AID504770
O=S(=O)(NC1CCN(Cc2ccccc2Sc2ccc(Cl)cc2)C1)c1ccccc1OC(F)(F)F (centres undefined)	-0.88	·
COc1cc(C2C(C#N)=C(N)OC3=C2C(=O)CC(C)(C)C3)ccc1OC(=O)N1CCOCC1 (centres undefined)	-0.52	·
Cc1cccc(NC2=CC(=O)CC(C)(C)C2)c1	-1.5	0.6
COC(=O)C1Sc2[nH]c(=O)sc2C(c2ccc(Cl)cc2)C1C(=O)OC (centres undefined)	0.1	0.1
CCOc1ccc(Nc2nc(N3CCCCC3)nc(N3CCCCC3)n2)cc1	-0.065	-0.25
Cc1ccccc1OCC(=O)OCC(=O)Nc1cccc(Br)c1	0.18	0.1
O=S(=O)(c1ccc(Br)cc1)c1snnc1-c1ccccc1	-0.2	·
OC1(c2ccccc2F)CCNCC1	0.84	0
COc1nc(Nc2nc3ccccc3c(=O)[nH]2)nc2ccc(C)cc12	0.17	·
O=C1NC(=O)N(c2ccc3c(c2)OCO3)C(=O)/C1=C/c1ccc(-c2cc(C(=O)O)ccc2Cl)o1	-0.69	·
O=C(NCc1cccs1)C12CC3CC(CC(C3)C1)C2	-0.45	0.55
CCSc1nc(Oc2ccc(C)cc2)c2sc3nc(C)cc(C)c3c2n1	0.16	·
CCc1cc2c(=O)n(-c3ccccc3)c(SCC(=O)c3ccccc3)nc2s1	72	0.7
O=C(CSCc1ccc(Cl)cc1)NC1CC1	-0.15	-0.65
CCCc1c(C(=O)NC2Cc3ccccc3C2)cnn1-c1ccccc1	-1.3	1.9
COc1ccc(S(=O)(=O)CCc2nnc(NC(=O)c3ccc(C(C)(C)C)cc3)s2)cc1	0.73	·
O=C(CC(c1ccccc1)c1ccccc1)NCC1(c2ccccc2)CCOCC1	0.52	·
COc1cccc(-n2c(=S)sc3c2nc(SCC(=O)O)n2c4ccccc4nc32)c1	-0.27	·
Cc1cccc(S(=O)(=O)N2CCN(S(=O)(=O)c3ccc(C)c(C)c3)CC2)c1	·	0.05
COc1ccc2c(C=Nc3ccccc3F)c(O)n(C)c(=O)c2c1	·	-0.2
CCC(c1nnc(SCC(=O)NCC(F)(F)F)n1Cc1ccccc1)N(C)C (centres undefined)	·	-1.6
CC1CCCN(c2ncccc2C(=O)NCC2CCCO2)C1 (centres undefined)	·	0.15
CCc1ccc(N2C(=O)C3N=NN(CCc4ccc(OC)cc4)C3C2=O)cc1 (centres undefined)	-0.15	-0.35
O=C(OCCN1C(=O)c2ccccc2C1=O)c1cc2ccccc2o1	0.8	0.1
CC(C)NC(=O)C(C)n1c2ccccc2c2cn[nH]c(=O)c21 (centres undefined)	23	0.35

Random excerpt: four compounds from above.
SMILES	CapD inh	AID504770
CCCc1c(C(=O)NC2Cc3ccccc3C2)cnn1-c1ccccc1	-1.3	1.9
COc1ccc(S(=O)(=O)CCc2nnc(NC(=O)c3ccc(C(C)(C)C)cc3)s2)cc1	0.73	·
O=C(NCc1cccs1)C12CC3CC(CC(C3)C1)C2	-0.45	0.55
COc1cccc(-n2c(=S)sc3c2nc(SCC(=O)O)n2c4ccccc4nc32)c1	-0.27	·

(more compounds)
SMILES	CapD inh	AID504770
O=C(O)CN1C(=O)/C(=C\c2cccc(Cl)c2Cl)SC1=S	-2.4	·
Clc1ccccc1-c1nnc2cccc(Cl)n12	1	-0.35
Brc1ccc(-c2ccc3ccccc3n2)s1	13	-1
CCCCOC(=O)c1c(C)oc2c1cc(NS(=O)(=O)c1ccc3c4c(cccc14)C(=O)N3)c1ccccc12	0.38	·
Clc1ccc(-c2csnn2)cc1Cl	0.27	0.5
CC(C)C(C(=O)Nc1ccc(S(=O)(=O)Nc2ncccn2)cc1)N1C(=O)c2ccccc2C1=O (centres undefined)	0.41	-0.7
COC(=O)C1=C(C(F)(F)F)OC(C)=C(C#N)C1c1ccccc1-c1ccccc1 (centres undefined)	2.4	-0.6
CC(C)CSc1nnc(CSCc2nc(-c3ccc(Cl)cc3)cs2)n1C	0.56	0.85
CC(=O)C1=C(C)OC(N)=C(C#N)C12C(=O)N(C)C1=C2CC=CC1 (centres undefined)	-0.39	·
O=C(NC1CCCCC1)c1cc(C(=O)c2ccccc2Br)c[nH]1	0.34	·
O=S(=O)(Nc1ccc(N2CCCCC2)cc1)c1cccs1	-0.59	-2.2
CCC(CO)Nc1ncnc2onc(C)c12 (centres undefined)	-0.58	-1.2
Cc1cccc(N2CC(O)(c3ccc(OC(F)F)cc3)[N+]3=C2CCCC3)c1 (centres undefined)	-0.16	·
COC(=O)c1sc(N2CCOCC2)c(C#N)c1N	-0.16	·
Cc1ccc2c(N)c(C(=O)c3ccc4c(c3)OCCO4)sc2n1	-0.52	-0.05
OC(c1ccccn1)c1c[nH]c2ccccc12 (centres undefined)	0.39	-0.85
CCOC(=O)C1=C(C)N=c2s/c(=C\c3cc(OC)ccc3OC)c(=O)n2C1c1ccc(SC)cc1 (centres undefined)	-0.71	·
CCCC(C(=O)NCc1ccccn1)N1Cc2ccccc2C1=O (centres undefined)	-1.3	-0.75
O=C(CCC1CCCC1)N1CCN(CC2CC=CCC2)CC1 (centres undefined)	0.065	-0.15
O=CNCCc1nc2ccccc2n1Cc1ccccc1	-0.29	-1.1
O=C(O)c1c[nH]c2ccc(OC(F)(F)F)cc2c1=O	0.28	·
O=S(=O)(NCCOC12CC3CC(CC(C3)C1)C2)c1cccc2nsnc12	-0.12	·
N/C(=N/c1nc2ccccc2o1)NC(=O)/C=C/c1ccccc1	11	1.3
CCOc1ccc(N(CC(=O)Nc2ccc(F)c(Cl)c2)S(=O)(=O)c2ccc(SC)cc2)cc1	0.38	·
Cc1ccc(/C=C2\SC(=S)N(CN3CCCC3)C2=O)cc1	-0.74	·

Further structures follow:
SMILES	CapD inh	AID504770
COC(=O)c1ccc(-c2ccc(/C=C3/C(=O)N(c4ccc(C)c(Cl)c4)N=C3C)o2)cc1	-0.53	·
c1ccc2c3c([nH]c2c1)CCCCCC3	1.4	·
COC(=O)c1cccnc1NC(=S)NC(C)C	-0.96	1.4
O=C(C1CC1)N1CCc2cc(S(=O)(=O)NCCCN3CCCCC3)ccc21	0.18	2.2
CN(C)C(=O)CSc1nnc2sc3ccccc3n12	-0.53	-0.1
Cc1nn(-c2cc(N3CCOCC3)ccc2N)c(=O)c2ccccc12	·	-0.65
OC(CN1CCCCCC1)Cn1c2ccc(Br)cc2c2cc(Br)ccc21 (centres undefined)	0.39&-0.1	·
CCC(CC)C(=O)Nc1c[nH]c(=O)[nH]c1=O	·	-0.55
COc1ccc([N+](=O)[O-])cc1N1C(=O)C2C3C=CC(O3)C2C1=O (centres undefined)	-0.91	·
CC1CN(c2ccc(NC(=S)N3CCSCC3)cc2)CC(C)O1 (centres undefined)	0.41	0.45
Cc1c(CC(=O)O)c(=O)oc2c(O)c(O)ccc12	-2.2	-0.4
CC(=O)Nc1ccc(Oc2ncnc3sccc23)cc1	·	-0.7
O=C(CC1SC(=O)N(c2ccccc2)C1=O)Nc1cccc(O)c1 (centres undefined)	0.55	·
CC1C(=O)Nc2ccc(-c3csc(N)n3)cc21 (centres undefined)	·	-0.75
O=c1cccc2n1CC1CC2CN(CC(O)/C=N/n2cnnc2)C1 (centres undefined)	-0.99	0.6
CCCN(CCC)S(=O)(=O)c1ccc(C(=O)NC2=C(C(=O)OC)SCC2)cc1	·	-1
O=C1CCc2cc(S(=O)(=O)NCc3ccccc3)cc3c2N1CCC3	·	1.6
COc1cc(C2C(C#N)=C(N)OC(C)=C2C(C)=O)cc(OC)c1OC (centres undefined)	0.21	·
CCS(=O)(=O)/N=C(\N)c1ccccc1	-0.065	-0.6
c1ccc(OCCOc2ncnc3ccccc23)cc1	·	0.15
COc1ccc2c(c1C)OC(C)(C)CC2=O	27	-0.4
CCN(C(=O)CN1CCCCC1)c1c(N)n(Cc2ccccc2)c(=O)[nH]c1=O	·	1.2
c1ccc(COCC(CSc2ccccc2)OCc2ccccc2)cc1 (centres undefined)	-0.2	1.4
Cc1cc(C)n2c(SC(CNS(=O)(=O)c3ccccc3)c3ccccc3)nnc2n1 (centres undefined)	-0.67	-0.65
COc1cnc(-c2ccccc2)nc1N1CCN(c2ccccc2F)CC1	0.81	·

Three structures out of the list, arranged by heavy-atom count, falling:
SMILES	CapD inh	AID504770
COc1cc(C2C(C#N)=C(N)OC(C)=C2C(C)=O)cc(OC)c1OC (centres undefined)	0.21	·
COc1ccc([N+](=O)[O-])cc1N1C(=O)C2C3C=CC(O3)C2C1=O (centres undefined)	-0.91	·
CN(C)C(=O)CSc1nnc2sc3ccccc3n12	-0.53	-0.1

Looked up above.
`Cc1cc(C)n2c(SC(CNS(=O)(=O)c3ccccc3)c3ccccc3)nnc2n1` (centres undefined) in CapD inh = -0.67
`O=C1CCc2cc(S(=O)(=O)NCc3ccccc3)cc3c2N1CCC3` in AID504770 = 1.6

Going on with the list.
SMILES	CapD inh	AID504770
CC(O)c1nc2ccccc2n1C(C)C (centres undefined)	-0.97	0.05
CCOC(=O)N(c1ccccc1)P1(=S)OCCO1	0.18	·
Cc1ccc(C(=O)ONc2ccc(N=O)cc2)cc1	-1	0.35
COC(=O)CSc1nc(N2CCOCC2)nc(N2CCOCC2)n1	·	0.8
N#CC1=C([S-])N[C@@](O)(c2ccccc2)[C@H]([n+]2ccc3ccccc3c2)[C@H]1c1cccc(F)c1	-0.03	·
Cc1cc(Cl)nc(Cl)c1C(=O)NC(=O)NCc1ccccc1	-0.17	-0.95
CCOc1cc(C(c2c(C)[nH]n(-c3ccccc3)c2=O)c2c(C)[nH]n(-c3ccccc3)c2=O)ccc1OCc1ccc(Cl)cc1	-0.29	·
COc1ccc(C2=NN(C(=O)CCC(=O)O)C(c3ccc(OC)cc3)C2)cc1 (centres undefined)	3.4	·
CC(=O)n1sc2nc(C)cc(C)c2c1=O	-0.83	-1.2
Cc1ccc(C2=NN3C(C2)c2cc(Br)ccc2OC3c2ccc(C(C)C)cc2)cc1 (centres undefined)	-0.22	·
O=C1C(Sc2ccccc2)=C/C(=N/S(=O)(=O)c2cccs2)c2ccccc21	0.82	0.05
COC(=O)c1ccccc1NC(=O)C(C)N1c2cccc3cccc(c23)S1(=O)=O (centres undefined)	26	-0.7
CC(C)(C)C(=O)NCc1ccc2c3c(cccc13)C(=O)N2	·	-0.2
CC1CCN(S(=O)(=O)N(C)C)CC1	·	-0.05
Cc1cc(NC(=O)c2ccc(N)cc2)c(N)cc1N	-0.24	-0.9
CCOc1ccccc1N1CCN(C(=O)c2cc3c(C)cc(C)cc3[nH]2)CC1	-0.15	-0.5
Cc1cc(C)c(NC(=O)CC2SC(N)=NC2=O)c(C)c1 (centres undefined)	0.48	·
Cc1cccc(NC(=S)N2CCC(NC(=O)c3ccco3)CC2)c1	·	0.85
COc1ccc(NC(c2ccc(O)cc2)P(=O)(OC)OC)cc1 (centres undefined)	-0.34	·
COC(=O)Cc1nc(N2CCN(Cc3ccc4c(c3)OCO4)CC2)c2c(C)c(C)sc2n1	-0.13	·
O=C(c1cc(=O)[nH]c2ccccc12)N1CCN(Cc2ccccc2)CC1	·	0.15
O=c1/c(=C/c2ccccn2)sc2n1CN(c1ccccc1)CN=2	59	0.05
COc1ccc(S(=O)(=O)N(CC(=O)Nc2cccc(C(F)(F)F)c2)c2ccc(C)cc2)cc1OC	-0.075	·
S=c1n(-c2ccccc2)cnn1CN1CCCCC1	·	-0.2
Cc1ccccc1-n1c(=O)cc(NCc2ccc3c(c2)OCO3)[nH]c1=O	-0.44	0.3

(further entries)
SMILES	CapD inh	AID504770
COc1ccc(C2C(C(=O)OC3CCCC3)=C(C)NC3=C2C(=O)CC(c2cccs2)C3)c(OC)c1OC (centres undefined)	8.3	·
CC(NC=O)c1ccc(Br)cc1 (centres undefined)	0.32	-0.35
COc1ccc(OC)c(C(=O)c2ccc([N+](=O)[O-])cc2)c1	-1.1	·
COc1ccc(NC2=CC(c3cccc(OC)c3)N(c3ccc(OC)cc3)C2=O)cc1 (centres undefined)	-0.11	·
CCOC(=O)C1CCCN(C(=O)c2c[nH]c3ccc(S(=O)(=O)N(C)c4ccc(CC)cc4)cc3c2=O)C1 (centres undefined)	1.2	·
CCOC(=O)CNc1cccc(C(=O)O)c1	52	-0.8
O=C1CCCC(O)=C1N=Nc1cccc(C(=O)O)c1	·	1.1
O=S(=O)(c1ccccc1)c1nc(-c2cccs2)oc1NCCCn1ccnc1	3.5	-0.55
CCC(C)N(Cc1nc(N)nc(Nc2ccccc2C)n1)Cc1nc(N)nc(Nc2ccccc2C)n1 (centres undefined)	·	-0.35
CN(C)C(=O)COC(=O)C1CCN(S(=O)(=O)c2ccccc2C(F)(F)F)CC1	·	-0.55
CCC(C)NC(=O)Nc1cccc(C)c1 (centres undefined)	-0.12	-1
C=CCOc1ccccc1/C=N/NC(=O)c1cc(Br)ccc1Cl	-1.4	·
COc1ccc(-c2ncccc2O)cc1	60	-1.9
O=C1NC(=S)NC(=O)C1=Cc1ccc(OCc2ccc(C(=O)O)cc2)c(Br)c1	-5*	·
Cc1ccc(C)c(N2CCN(C(=O)C3CCCN3S(=O)(=O)c3cccc4nsnc34)CC2)c1 (centres undefined)	0.56	0.2
COc1ccc(CNS(=O)(=O)NCc2ccc(C)cc2)cc1OC	-0.23	·

An excerpt of these results, as labelled records.
CCOC(=O)CNc1cccc(C(=O)O)c1
  CapD inh = 52; AID504770 = -0.8

O=C1CCCC(O)=C1N=Nc1cccc(C(=O)O)c1
  CapD inh = ·; AID504770 = 1.1

These rows are one share of the data; count on the stated rates, not on these rows.
